# Screening results: PubChem, National Center for Advancing Translational Sciences (NCATS)
# AID923 – qHTS Assay for Allosteric/Competitive Inhibitors of Caspase-1: Spectroscopic Profiling in AFC Spectral Region. compound fluorescence, AFC spectral region (405/520 nm); almost no hit is shown here. Potency, µM (series often up to 57.5 µM), for inactives: top-dose fluorescence increase, actives largely listed as activators. 75,000 tested, 1.1% active. AID 923, 2007; active = well fitted activation curve with a large enough effect; inconclusive = small, poorly fitted or top-dose-only effect;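 also: potency is read from the fitted curve at half-maximal effect; 0% is about no effect; scaled to a free AFC standard on each plate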
#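 Baseline compound fluorescence (AFC region, 405 nm ex/520 nm em) taken from the intercept of kinetic reads with 50 nM caspase-1 and 5 uM Ac-WEHD-AFC; normalized to an on-plate AFC standard curve; compounds titrated up to 57 uM.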
# TSHR ag – activates the human thyroid stimulating hormone receptor | P16473 | HEK293-CNG-TSHR cells (CNG channel as cAMP sensor), membrane potential dye, cAMP | Potency, µM (titrated, usually from 57.1 µM), for the others: at the highest dose activation, usual class: activators | 73,000 tested, 0.48% active | AID 926; active = well fitted activation curve of enough size with the parental cells flat; inconclusive = any curve in the parental cells; inactive = parental cells flat and receptor cells flat or falling; also: potency is read from the fitted curve at half-maximal effect; % of control where 0% means no effect; weak receptor curves with flat parental cells got no call and are not listed
# Target sequence (P16473 whole entry, looked up): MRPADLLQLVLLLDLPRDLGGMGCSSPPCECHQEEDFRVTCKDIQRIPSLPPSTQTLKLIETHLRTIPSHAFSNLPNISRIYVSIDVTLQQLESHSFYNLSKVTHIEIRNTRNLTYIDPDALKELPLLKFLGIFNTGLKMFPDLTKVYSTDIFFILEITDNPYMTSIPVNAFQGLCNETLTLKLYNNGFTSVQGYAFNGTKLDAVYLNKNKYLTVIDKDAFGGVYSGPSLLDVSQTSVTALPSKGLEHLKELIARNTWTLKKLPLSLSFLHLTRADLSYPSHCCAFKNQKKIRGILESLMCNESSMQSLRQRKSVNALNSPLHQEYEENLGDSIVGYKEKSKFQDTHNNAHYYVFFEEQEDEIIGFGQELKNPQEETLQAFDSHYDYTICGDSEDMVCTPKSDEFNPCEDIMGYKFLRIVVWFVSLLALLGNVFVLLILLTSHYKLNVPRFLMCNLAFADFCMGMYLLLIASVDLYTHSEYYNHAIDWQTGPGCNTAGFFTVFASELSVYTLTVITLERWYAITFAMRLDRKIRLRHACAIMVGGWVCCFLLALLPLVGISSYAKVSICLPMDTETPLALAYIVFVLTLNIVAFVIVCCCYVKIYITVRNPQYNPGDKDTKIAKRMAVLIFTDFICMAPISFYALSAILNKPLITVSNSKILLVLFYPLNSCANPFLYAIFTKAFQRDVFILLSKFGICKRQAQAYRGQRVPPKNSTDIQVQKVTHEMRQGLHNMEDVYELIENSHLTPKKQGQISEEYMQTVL
#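 HEK 293 cells stably expressing TSHR and a cAMP-gated CNG channel; parental CNG-only cells as counterscreen. Cells preloaded 60 min with membrane potential dye plus 100 uM RO 20-1724, then compound 30 min; fluorescence read at 590 nm.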
# Resorufin fluor – compounds fluorescent in resorufin spectral region; Compound fluorescence, resorufin region 547/598 nm, buffer; hits give high values; max dye-equivalent concentration, M; 59,000 tested, 0.04% active; AID 588; active = above 10 nM dye equivalent; inconclusive = 1 to 10 nM; inactive = 1 nM or less; a few of its hits are not listed in these tables; also: highest value over a series up to 38 µM
#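 Compounds in 100 mM Tris, pH 8.0, incubated 15 min at room temperature, then fluorescence read at 547 nm excitation/598 nm emission. Signal converted to dye-equivalent concentration via an on-plate six-point resorufin standard curve, per compound concentration.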
# A488 autofl – compound autofluorescence in A488 spectral region; compound autofluorescence, A488 spectral region, dye equivalency; hits give high values; max dye equivalency, M; 59,000 tested, 0.1% active; AID 591; active = above 10 nM dye equivalent; inconclusive = 1 to 10 nM; inactive = 1 nM or less; about half of its hits are not listed in these tables;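 also: highest value over a series up to 38 µM; compound alone in buffer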
#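 Readout is A488 dye-equivalent concentration, calibrated by a per-plate six-point Alexa 488 series. Compounds in 100 mM Tris buffer pH 8.0 were incubated 15 min at room temperature. Plates were imaged using 480 nm excitation/540 nm emission filters.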
# A647 fluor – compound autofluorescence in A647 spectral region. Compound fluorescence, A647 channel (570/671 nm), Tris buffer. max dye-equivalent concentration, M. 59,000 tested, under 10 active. AID 592; active means above 1 µM dye equivalent; inconclusive means 0.1 to 1 µM; inactive means 0.1 µM or less;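 also: values scaled relative to a standard on each plate; highest value over a series up to 38 µM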
#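 Spectral profiling of library compounds in pH 8.0 Tris: 15 min room-temperature incubation, single ex/em pair (570/671 nm), response normalized to Alexa 647 equivalents.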
# * marks the source's active call; other numbers are inactive results; i = inactive; ? = inconclusive; nt = no result given; & = joins results of further samples; [ ] = another dose, or the depositor's remark.
SMILES,AID923,TSHR ag,Resorufin fluor,A488 autofl,A647 fluor
Cn1nc(C(=O)N2CCCC2)c2ccccc2c1=O,-1.5%,2.5%,i,i,1e-09
COc1ccc(N(CC(=O)N2CCc3ccccc32)S(=O)(=O)c2c(C)noc2C)cc1,-0.3%,25.0%,i,i,2.35e-08
Cc1cnc(NC(=O)c2ccc3c(c2)C(=O)N(Cc2ccco2)C3=O)s1,-0.1%,-18.8%,i,i,1e-09
COc1cccc2cc(C(=O)NCC3CCCO3)c(=O)oc12 (stereo not drawn),-1.1%,-0.5%,i,i,1e-09
O=C(O)c1cccc(S(=O)(=O)N2CCCC2)c1,-0.3%,6.3%,nt,nt,nt
CCOc1ccc2c(c1)C(C)=CC(C)(C)N2,4.7%,-16.0%,i,i,1e-09
Cc1cccc(N(C(=O)Cn2nnc3ccccc32)C(C(=O)NCc2ccco2)c2ccncc2)c1 (stereo not drawn),1.0%,8.0%,i,i,1.41e-08
CC(=C/C(=O)O)/C=C/c1cccs1,1.8%,11.8%,i,i,5.1e-09
COc1ccc2c(c1OC)C(=O)OC2Nc1ccccn1 (stereo not drawn),0.0%,-10.4%,nt,nt,nt
Cc1cc(NC(=O)CCCOc2ccc(Cl)cc2Cl)no1,1.1%,4.6%,i,i,4.88e-08
CN(C)C(N)=NCCC[C@H](N)C(=O)O,-1.6%,?,i,i,4.19e-08
O=C(OC(C(=O)NC1CCCC1)c1ccccc1F)c1ccco1 (stereo not drawn),-2.0%,9.9%,i,i,3.41e-08
CC(=O)NC1=C(OS(=O)(=O)c2ccc(C)cc2)CN(C)C1=O,-0.5%[11.5 µM],3.2%[11.4 µM],i,i,9.8e-09
COC(=O)c1ccc(C(=O)OC)c(NC(=O)CN2CCN(c3ccccc3)CC2)c1,-1.6%,?,i,i,2.73e-08
Cc1c(N(C)C(=O)C23CC4CC(CC(C4)C2)C3)c(=O)n(-c2ccccc2)n1C,0.7%,10.9%,i,i,3.7e-09
O=C(Nc1ccccn1)c1cccnc1,-0.3%,-0.3%,i,i,1.09e-08
O=S(=O)(c1ccc2nc(COc3ccc(Cl)cc3Cl)[nH]c2c1)N1CCOCC1,0.3%,6.1%,i,i,2.6e-08
CN1CCN(c2ncncc2-c2ccccc2C(F)(F)F)CC1,1.4%,6.6%,i,i,4.49e-08
CCN(CC)CC(=O)Nc1cc(C)c2c(=O)oc3ccccc3c2n1,3.1%,4.1%,nt,nt,nt
O=C(CNS(=O)(=O)c1ccccc1)N1CCN(c2ccccc2)CC1,-0.1%,0.0%,i,i,5.2e-09
N#Cc1c2n(c(=O)[nH]c1=O)CCCCC2,1.5%,7.0%,i,i,6.4e-09
O=S(=O)(c1cccc(C(F)(F)F)c1)N1CCN(c2nnnn2-c2ccccc2)CC1,-0.5%,8.1%,i,i,4.89e-08
CC(C)C(c1nnnn1Cc1ccccc1)N1CCN(Cc2ccco2)CC1 (stereo not drawn),1.0%,9.7%,i,i,3.35e-08
Cc1ccccc1-c1nc(CN2CCC(C(=O)O)CC2)c(C)o1,-3.7%,4.1%,nt,nt,nt
CC(C)=C1C2C=CC1C(C(=O)Nc1cccc(C)c1)C2C(=O)O (stereo not drawn),-0.8%,-1.6%,nt,nt,nt
O=C(CCCC1=NS(=O)(=O)c2ccccc2N1)N1CCN(c2ccc(Cl)cc2)CC1,2.6%,-16.8%,nt,nt,nt
COc1ccc(-c2nnc(SCC(=O)Nc3ncc(C)s3)n2-c2ccccc2)cc1OC,-0.9%,?,i,i,6.5e-09
NCc1nnn(Cc2ccccc2)c1N,2.8%[11.5 µM],0.6%[11.4 µM],i,i,1.7e-09
CCn1c(=O)cc(OCC(=O)NCc2cccnc2)c2ccccc21,-1.1%,-0.2%[11.4 µM],i,i,4.8e-09
COc1cccc(-n2c(C)nc3c(cnn3-c3ccc(C)cc3)c2=O)c1,0.2%,?,i,i,6.7e-09
Cc1nnc(SCCn2c(N3CCN(c4ccccc4)CC3)nc3c2c(=O)n(C)c(=O)n3C)s1,-4.4%,?,nt,nt,nt
CC(NC(=O)CSc1nnc(COc2ccccc2)o1)c1ccccc1 (stereo not drawn),nt,nt,i,i,1e-09
CCOc1ccccc1NC(=O)N1CCC(c2nc3ccc(C)cc3[nH]2)CC1,2.9%,18.6%,i,i,1e-09
CCCN1CCN(C(c2cc3cc(OCC)ccc3[nH]c2=O)c2nnnn2C2CCCCC2)CC1 (stereo not drawn),3.9%,11.7%,i,i,5.5e-09
O=C(Cn1ncc2c1-c1ccccc1OC2)N1CCN(Cc2ccc3c(c2)OCO3)CC1,0.1%,10.3%,nt,nt,nt
COC(=O)c1cccc(NC(=O)CSc2nc(=O)cc(N)n2-c2ccccc2)c1,-1.0%,2.0%,i,i,5.78e-08
CC(C)NC(=O)CCCn1c(=S)[nH]c2cc3c(cc2c1=O)OCO3,-0.2%,8.3%,i,i,1e-09
Cc1nn(-c2ccc(Cl)cc2)c2sc(C(=O)N3CCN(c4ccccn4)CC3)cc12,0.4%,?,i,i,1e-09
C[C@@H](N=C(N)N)C(=O)O,-5.0%[11.5 µM],0.3%[11.4 µM],i,i,1e-09
O=C(c1csnn1)N1CCC2(CC1)CCN(c1ccccn1)CC2,0.6%,8.1%,i,i,1e-09
CC(=O)Nc1ccc(S(=O)(=O)N2CCC(N(C)CCC(C)C)CC2)cc1,0.0%,0.5%,i,i,1e-09
Cc1cc(C(=O)O)sc1C(N)C(=O)O (stereo not drawn),-1.0%,-1.7%,nt,nt,nt
CN(C)CCCn1c2ccccc2c2cnccc21,4.2%[11.5 µM],3.8%[11.4 µM],i,i,1.2e-09
COc1ccccc1NC(=O)CCc1c(C)[nH]c(=O)c(C#N)c1C,0.7%,9.7%,i,i,1.03e-08
CCn1c(SCC(=O)N2CCN(S(=O)(=O)c3ccccc3)CC2)nnc1-c1cccs1,0.2%,5.1%,i,i,2.09e-08
O=C(O)c1cc(C(=O)C(=O)c2cc(C(=O)O)c(O)c3ccccc23)c2ccccc2c1O,-7.3%[11.5 µM],?,i,i,1e-09
NC/C(=N\O)c1ccc(Cl)cc1Cl,4.8%,4.1%,nt,nt,nt
Cc1nn(-c2nnc(C)c(=O)[nH]2)c(C)c1SCC(=O)Nc1ccc(F)cc1,3.0%,-1.0%,i,i,2.51e-08
Cc1ccc(-n2c(SCc3ccc(C#N)cc3)nnc2-c2ccccn2)cc1,1.1%,19.9%,i,i,9.7e-09
CSCC[C@H](NC(=O)OC(C)(C)C)c1nnc(SCC(=O)N(C)C)o1,0.7%,-13.0%,i,i,2.2e-09
CC(=O)c1cccc(NC(=O)NC2CCCCC2)c1,-1.8%,14.8%,nt,nt,nt
CC1CN(c2ncnc3c2oc2ccccc23)CC(C)O1 (stereo not drawn),0.1%,19.0%,i,i,2.02e-08
O=C(CSc1nnnn1-c1ccccc1)Nc1ccc(N2CCOCC2)c(Cl)c1,2.7%,20.4%,i,i,1e-09
CCOC(=O)CN1C(=O)C(O)(C2CCc3ccccc3C2=O)c2ccccc21 (stereo not drawn),-1.7%,8.2%,i,i,1.32e-08
COCC(=O)N(CCc1ccc(OC)cc1)Cc1nc2ccccc2c(=O)[nH]1,1.4%,-3.7%[11.4 µM],i,i,1e-09
NNc1nncc2ccccc12,2.1%,-6.6%[25.6 µM],i,i,2.32e-08&1e-09
O=C(Nn1cnnc1)c1cc2c(s1)CCCC2,-0.8%,16.1%,i,i,4.2e-09
COc1ccc(CC(NC(C)=O)C(=O)NC2CCN(c3nnnn3-c3ccccc3)CC2)cc1 (stereo not drawn),-0.8%,?,i,i,2.1e-09
COC(=O)C1=C(C)N(Cc2ccccc2)C2=C3C(=O)CCCC3[C@@](O)(C(=O)OC)C(=O)N2C1c1ccccc1 (stereo partly drawn),2.0%&-2.1%[11.5 µM],1.7%&3.1%[11.4 µM],nt,nt,nt
c1ccc(OCc2nn3c(C4CCCCC4)nnc3s2)cc1,nt,nt,i,i,1e-09

# Exported with values under each structure: four of the compounds above
# Values run as follows: AID923, TSHR ag, Resorufin fluor, A488 autofl, A647 fluor
O=C(CSc1nnnn1-c1ccccc1)Nc1ccc(N2CCOCC2)c(Cl)c1
    2.7%, 20.4%, i, i, 1e-09
CCOC(=O)CN1C(=O)C(O)(C2CCc3ccccc3C2=O)c2ccccc21 (stereo not drawn)
    -1.7%, 8.2%, i, i, 1.32e-08
COCC(=O)N(CCc1ccc(OC)cc1)Cc1nc2ccccc2c(=O)[nH]1
    1.4%, -3.7%[11.4 µM], i, i, 1e-09
NNc1nncc2ccccc12
    2.1%, -6.6%[25.6 µM], i, i, 2.32e-08&1e-09

# Further records.
SMILES,AID923,TSHR ag,Resorufin fluor,A488 autofl,A647 fluor
O=C(CCNS(=O)(=O)c1cccs1)N1CCc2ccccc2C1,0.8%,7.2%,i,i,1.82e-08
COC(=O)N1CCC2(CCN(Cc3ccccc3OC)CC2)CC1,1.2%,4.9%,i,i,1e-09
COc1ccc(Cl)cc1NC(=O)c1nc2nc(C)cc(C(F)F)n2n1,1.6%,-7.2%,nt,nt,nt
Cc1cccc(OCC(=O)Nc2ccc3c(c2)nc(CCN2CCN(C)CC2)n3C)c1,-0.8%,18.6%,i,i,3.7e-09
Nn1c(COc2cccc(Br)c2)nnc1SCC(=O)N1CCc2ccccc2C1,3.7%,9.3%,i,i,1.2e-09
COc1cc(-c2cc(C(=O)O)c3c(OC)c(OC)c(OC)cc3n2)ccc1O,-0.5%,13.9%,i,i,5.26e-08
Cn1cnnc1SCCn1c(N2CCCCC2)nc2c1c(=O)[nH]c(=O)n2C,1.5%,-1.8%,i,i,5.5e-09
CCOC(=O)N1CCN(C(=O)c2ccc(-n3c(=S)[nH]c4ccccc4c3=O)cc2)CC1,0.1%,18.3%,i,i,7.2e-09
O=C(CSc1nc2nc[nH]c2c(=O)[nH]1)NC1CCCCC1,2.2%,3.7%,i,i,4.25e-08
Cc1cc(NC(=O)c2ccc(NC(=O)C(C)Oc3ccccc3)cc2)no1 (stereo not drawn),-1.9%,-4.6%,i,i,8.7e-09
O=C(OCc1ccccc1)C1CCCN1C(=O)c1cccs1 (stereo not drawn),8.8%,7.2%,i,i,9.9e-09
CCN(CC)CCOC(=O)c1c(C)oc2ccc(O)cc12,-0.4%,13.1%,i,i,4.3e-09
Cc1cccc2cc(C(c3nnnn3CC3CCCO3)N3CCc4ccccc4C3)c(=O)[nH]c12 (stereo not drawn),5.3%,-1.4%,i,i,2.8e-09
O=C(c1ccccc1F)N1CCc2ccccc21,-0.3%,8.0%,i,i,3.14e-08
CC1=C(C(=O)OCc2ccccc2)C(c2ccc(C)o2)C2=C(CCCC2=O)N1 (stereo not drawn),3.4%,16.4%,nt,nt,nt
O=C(COc1ccc(S(=O)(=O)N2CCOCC2)cc1)Nc1ccc(Cl)c(C(F)(F)F)c1,1.0%,7.6%,i,i,2.4e-08
CCn1ccc(C(=O)Nc2ccc(Cl)cn2)n1,0.0%,?,nt,nt,nt
CC(C)C(OC(=O)CN1C(=O)COc2ccccc21)C(=O)NC1CCCC1 (stereo not drawn),0.2%,?,i,i,1.29e-08
CN(CCNC(=O)C1CC(=O)N(C2CCCC2)C1)Cc1ccccc1 (stereo not drawn),-0.6%,11.5%,nt,nt,nt
COc1cccc(N=C2SC(C(=O)Nc3ccccc3F)CC(=O)N2C)c1 (stereo not drawn),0.5%,3.9%,i,i,1e-09
CCCCOCCOCCOCCCC,1.3%,4.7%,nt,nt,nt
O=C(NC1CCCC1)C(c1cccs1)N(Cc1ccco1)C(=O)c1csnn1 (stereo not drawn),3.6%,?,i,i,4.74e-08
O=C1CCCC2=C1C(c1c(Cl)nc3sccn13)C1=C(CCCC1=O)N2,0.5%,1.1%,i,i,2.7e-08

# This is a subset; the hit share may differ from the screen's.
